ClpP mod: qHTS Assay for Activators of ClpP. AID 651965, 2013. ATP-dependent Clp protease proteolytic subunit (Bacillus subtilis (strain 168)), P80244. Potency, µM (titrated, usually from 57.5 µM), for the others: at the top dose activity change, negative = active. purified B. subtilis ClpP, FRET peptide cleavage, 20 min. 1.9% of 340,000 active; active = well fitted falling curve with a large enough effect; inconclusive = small, poorly fitted or top-dose-only effect; inactive = no such curve, though single readings can be large or run the other way; note: potency is the fitted concentration of half-maximal effect; the source files actives as falling curves though it sought activators and does not explain the sign; nearly all actives have a fitted effect of over 65% in size; many hits overshoot -100%
Target sequence (P80244 whole entry, looked up): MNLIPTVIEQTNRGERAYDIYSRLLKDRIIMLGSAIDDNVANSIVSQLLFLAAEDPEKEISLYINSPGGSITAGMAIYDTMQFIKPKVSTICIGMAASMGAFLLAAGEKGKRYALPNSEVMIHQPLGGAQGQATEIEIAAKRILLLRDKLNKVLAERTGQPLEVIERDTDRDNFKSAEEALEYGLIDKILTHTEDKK
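Purified B. subtilis ClpP, 10 microg/mL final in Tris/HCl pH8 with KCl, BSA, glycerol and Tween-20, cleaved an Abz/nitrotyrosine-quenched decapeptide. Fluorescence (ex 320, em 430) was read at 0 and 20 min at room temperature. Delta was normalized to 5.8 microM ADEP and DMSO/no-enzyme controls.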
TRPML1 blocker: qHTS for Inhibitors of the Human Mucolipin Transient Receptor Potential 1 (TRPML1); Mucolipin-1 (Homo sapiens), Q9GZU1; 0.02% of 390,000 active; activity change, negative = inhibition, % (test concentration not listed); TRPML1-inducible cells, Ca2+ dye fluorescence, FDSS; stronger effect = lower value; inhibition of EC80 agonist-evoked calcium signal; in the data active means activity change below about -50%; inconclusive means about -30% to -50%; inactive means above about -30%;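 note: stimulus is agonist 54-4 at its EC80 concentration; % is set by controls: 0 for no effect and ±100 for the full control effect; compound concentration not given in the record; the text of the record puts the active cut at -80%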
Target sequence (Q9GZU1 whole entry, looked up): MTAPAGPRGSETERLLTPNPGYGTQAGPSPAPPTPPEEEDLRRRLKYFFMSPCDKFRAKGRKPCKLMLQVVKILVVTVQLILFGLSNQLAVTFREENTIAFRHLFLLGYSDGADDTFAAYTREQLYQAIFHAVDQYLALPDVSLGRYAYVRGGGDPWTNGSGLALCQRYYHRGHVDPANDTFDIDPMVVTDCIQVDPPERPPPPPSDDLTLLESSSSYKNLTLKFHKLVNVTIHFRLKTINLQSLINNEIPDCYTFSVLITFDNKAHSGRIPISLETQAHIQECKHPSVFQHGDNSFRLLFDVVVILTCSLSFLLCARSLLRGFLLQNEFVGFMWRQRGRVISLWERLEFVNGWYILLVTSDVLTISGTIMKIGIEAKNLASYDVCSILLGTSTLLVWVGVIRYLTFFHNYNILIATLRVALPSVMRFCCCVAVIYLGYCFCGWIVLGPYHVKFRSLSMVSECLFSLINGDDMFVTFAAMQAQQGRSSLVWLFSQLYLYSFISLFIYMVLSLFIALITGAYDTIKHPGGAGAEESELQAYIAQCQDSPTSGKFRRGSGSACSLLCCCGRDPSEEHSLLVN
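Calcium fluorescence in TRPML1-DL cells induced overnight with Tet: a 110 s read after compound pin addition, then a 110 s antagonist read after challenge with 54-4 at 4 uM final (EC80).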
gsp antagonist: qHTS for Antagonists of gsp, the Etiologic Mutation Responsible for Fibrous Dysplasia/McCune-Albright Syndrome: qHTS. gsp-mutant cells, cAMP HTRF, 30 min; control for the full effect not named in the record. Potency, µM (titrated, usually from 76.9 µM), inactives show top-dose activity change, negative = inhibition, hits mostly inhibitors. 0.4% of 340,000 active. AID 624288, 2012; active = falling curve of any shape with a large fitted effect; inconclusive = falling curve, mostly with a smaller effect; inactive = flat or rising curve; cell line not stated here;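 note: intracellular cAMP measured with PDE inhibitor Ro 20-1724 present during compound exposure; potency is the fitted concentration of half-maximal effect; % is set by controls: 0 for no effect and ±100 for the full control effect; nearly all actives have a fitted effect of over 65% in size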
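Measurement of cellular cAMP by homogeneous time-resolved fluorescence following a 30 min compound exposure at 37C. The PDE inhibitor […] was present throughout; the assay buffer was DPBS with 0.05% BSA and 0.005% Tween 20.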
gsp ag: qHTS for Agonist of gsp, the Etiologic Mutation Responsible for Fibrous Dysplasia/McCune-Albright Syndrome: qHTS; gsp mutant cells, cAMP HTRF, 30 min; control for the full effect not named in the record; Potency, µM (highest dose often 76.9 µM), for inactives: top-dose activation (cAMP increase), actives largely listed as activators; 0.13% of 340,000 active; active = well fitted activation curve with a large enough effect; inconclusive = small, poorly fitted or top-dose-only effect, or another doubt; inactive = no such curve, though single readings can be large or run the other way; cell line not stated here;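 note: phosphodiesterase inhibitor Ro 20-1724 added with compounds to block cAMP breakdown; potency is the fitted concentration of half-maximal effect; nearly all actives have a fitted effect of over 60% in size; about a fifth of the inactives were tested at one dose only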
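Cells stably selected in G418 were plated at 2000/well, grown 16-24 hr, then given compounds in DMSO with the PDE inhibitor […] (300 uM solution added) for 30 min at 37C; cAMP was read by HTRF.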
Sfp inh: qHTS Assay for Inhibitors of Bacillus subtilis Sfp phosphopantetheinyl transferase (PPTase); Potency, µM, without a hit: max response, negative = inhibition, hits mostly inhibitors; 4'-phosphopantetheinyl transferase ffp (Bacillus subtilis), Q9F4F7; 3.5% of 310,000 active; Biochemical Sfp PPTase activity, qHTS; AID 1490, 2009; active = well fitted inhibition curve with a large enough effect; inconclusive = small, poorly fitted or top-dose-only effect, or another doubt; inactive = no such curve, though single readings can be large or run the other way;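 note: the enzyme is Sfp with the accession as filed and its product quenches rhodamine fluorescence; potency is the fitted concentration of half-maximal effect; 0% = enzyme reaction without inhibitor and -100% = no enzyme wells; top concentration of the series not given in the record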
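With Hepes-Na pH 7.6 buffer containing 10 mM MgCl2, Sfp (15 nM) modified BHQ-2-YbbR (12.5 uM) using rhodamine-CoA (5 uM). Two reads 30 minutes apart at 525/598 nm yielded each well's rate.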
Menin-MLL FL inh: qHTS Assay for Inhibitors Targeting the Menin-MLL Interaction in MLL Related Leukemias: Competition With Fluorescein Labeled MLL-derived Peptide. Fluorescence polarization, fluorescein-MLL peptide displacement from menin. FP activity change, % at 61.4 µM. 290,000 tested, under 10 active. AID 1766, 2009; inconclusive = falling polarisation curve, or a change in total fluorescence; inactive = total fluorescence flat and polarisation flat or rising; no compound was filed as active; the % refers to the polarisation; negative = inhibition;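 note: % of control where 0% means no effect; inhibitors lower the polarisation; unlabelled MLL peptide was the positive control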
TRPV1 potentiator: HTS Assay for Compounds that Act as Potentiators of the Vanilloid Receptor 1 | AID 540277, 2011 | TRPV1-expressing cells, Fluo-8 calcium influx, capsaicin EC20 potentiation; host cell line not named in the record; control for the full effect not named in the record | 0.02% of 320,000 active | potentiation, % at 8.33 µM; active means potentiation above 80%; inconclusive means 30% to 80%; inactive means below 30%; note: 0% is about no effect
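TRPV1-expressing cells were cultured overnight at 35.5C and loaded with Fluo-8 calcium dye for 40 to 90 min at room temperature. After a 10 s baseline, compound was added and calcium influx was read kinetically for 3 min (ex 480/em 520 nm).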
Numbers without * were called inactive; u = inconclusive; x = not tested or not shown; & = joins results of further samples; [ ] = dose if it differs, or a comment.

SMILES,ClpP mod,TRPML1 blocker,gsp antagonist,gsp ag,Sfp inh,Menin-MLL FL inh,TRPV1 potentiator
COc1ccc(-c2cc(=O)[nH][nH]2)cc1,6.3%,10.6,5.0%,24.4%,-11.5%,-1.3,3.7
O=S(=O)(Nc1ncccn1)c1ccc(NC(=S)NCCc2ccccc2)cc1,1.8%,11.2,2.9%,-1.3%[15.4 µM],5.8%,-6.3,4.6
COc1cccc(NC(=O)CN(C)C(=O)CCNC(=O)c2ccccc2Cl)c1,1.2%,-13.1,-4.1%,-10.6%,x,x,5.3
COc1cccc(=O)c2c(C)n(CC(=O)c3ccccc3)c(C)c12,-1.2%,-6.4,-1.6%,-56.3%[inhibitor],44.7µM*,u,11.8
Cc1cc(C)c(S(N)(=O)=O)c(C)c1N(C)S(=O)(=O)c1ccc(Cl)cc1,-3.3%,15.5,-12.1%,20.7%,1.9%,x,1.7
COc1ccc(C(=O)c2c(C)oc3cc([N+](=O)[O-])c(O)c([N+](=O)[O-])c23)cc1,u,-7.1,-2.2%,-32.0%[inhibitor],-10.8%,1.1,11.7
CC(=O)c1cc2c(cc1NC(=O)c1cc(C)nn1-c1ccccc1)OCO2,u,-4.2,5.7%,-3.1%,4.6%,-1.0,-6.6
O=C(COC(=O)CCc1c[nH]c(=O)[nH]1)Nc1ccccc1Cl,-4.1%,1.3,5.0%,-13.1%,-18.2%,-18.2,-0.2
CCOC(=O)COc1ccc(S(=O)(=O)NCC2CCCO2)cc1 (configuration not stated),-1.7%,-8.6,-3.6%,7.5%,9.2%,1.5,-5.9
CCc1nc(SCc2ccccc2C#N)n[nH]1,-1.0%,6.4,14.8%,17.5%[15.4 µM],12.6%,-4.1,-0.7
O=C(NC1CCCCC1)c1c(O)nc2sccn2c1=O,x,-16.4,4.4%,-6.2%[15.4 µM],x,x,6.4
CC(C)(C)C(=O)Nc1nnc(-c2ccccc2)c(-c2ccccc2)n1,0.0%,24.5,-3.2%,-6.8%[15.4 µM],-0.8%,-1.4,-6.7
O=C(O)c1ccccc1N/N=C/c1cc(Br)cc(Br)c1O,x,16.8,-25.9%,4.0%[15.4 µM],-13.5%,-0.2,9.2
O=S(=O)(c1ccc(F)cc1)N1CCn2c(nc3ccccc32)C1,-0.4%,-9.9,3.6%,-10.8%,1.7%,-0.4,-25.8
COc1ccc(C2CC(=O)C(C=NCCN3CCN(C(C)=O)CC3)=C(O)C2)cc1OC (configuration not stated),x,x,x,x,6.3%,-0.1,1.5
O=C(OCC(=O)N1CCC(Cc2ccccc2)CC1)c1ccc(O)cc1,-0.3%,10.5,x,-5.6%,x,x,x
CC1(C)N=C(SCC(=O)Nc2ccc(Cl)cc2)C(c2ccc(Cl)cc2)=N1,-6.2%,42.4,u,-3.8%,5.9%,2.2,-2.3
Cc1c(NS(=O)(=O)c2ccc(NCCN3CCOCC3)c([N+](=O)[O-])c2)c(=O)n(-c2ccccc2)n1C,1.1%,-0.3,-8.7%,27.9%,13.1%,-0.6,9.4
CCCCn1c(C)nc2c(=O)n(C)c(=O)[nH]c21,-8.5%,29.5,5.2%,u,14.0%,1.7,6.9
O=C(NNc1ccc(Cl)nn1)c1ccc(Cl)cc1,x,8.8,13.5%,-21.8%,4.5%,-1.3,-6.2
Clc1ccccc1CSc1nnc(-c2cccnc2)n1Cc1ccco1,-2.6%,-3.9,4.7%,-4.5%,-29.6%,2.4,-4.0
COc1cccc(OC)c1OCCN1CCN(C(c2ccccc2)c2ccccc2)CC1,-3.4%,21.7,-1.6%,36.8%,-13.1%,-0.7,10.2
Nc1c(C(=O)NCCC2=CCCCC2)sc2ccc(S(=O)(=O)N3CCCCC3)cc12,u,-6.7,-0.1%,-13.9%,21.9%,4.0,5.3
COc1ccc(-c2nc(CSCC(=O)N3CCN(C)CC3)c(C)o2)cc1OC,3.7%,-1.0,10.5%,1.1%,2.7%,2.2,17.0
COc1cccc(/C=C/C(=O)OCC(=O)Nc2cccc(S(=O)(=O)NC3=NCCCCC3)c2)c1,3.8%,-11.4,-1.9%,-69.0%[inhibitor],x,x,x
O=C(CCSc1nnc2scc(-c3ccccc3)n12)Nc1nc(-c2ccccc2)ns1,0.7%&1.8%,-13.4,11.2%,-1.9%,23.6%,-0.2,6.9
CCn1cc(CN2CCC(n3nccc3NC(=O)C3CCCC3)CC2)c(C)n1,-1.9%,18.0,12.2%,-3.4%[15.4 µM],8.2%,x,14.5
COC(=O)c1sccc1NC(=O)c1ccc(C)o1,-2.9%,-3.0,-1.7%,-1.6%,-0.4%,2.9,5.9
COC(=O)c1cn(C(=O)c2ccc(OC)cc2)c2ccccc12,x,21.3,-13.1%,-74.6%[inhibitor],-2.0%,1.0,-2.5
Cc1onc(-c2c(F)cccc2Cl)c1C(=O)Nc1ccc(S(=O)(=O)N2CCOCC2)cc1,-0.3%,-14.5,-20.5%,14.7%[15.4 µM],x,x,x
O=C(O)C1=C[C@@H](c2coc3ccccc3c2=O)C[C@@H](OCCCCO)O1,6.3%,-2.1,-3.3%,29.0%,10.6%,4.9,24.1
CCOC(=O)C1=C(C)NC(=O)NC1c1ccc(NC(C)=O)cc1 (configuration not stated),-0.4%,0.5,5.0%,-23.7%,10.0%,3.1,-5.4
O=C(N/C(=C\c1ccco1)C(=O)N1CCCCC1)c1ccc([N+](=O)[O-])cc1,2.3%,15.8,-4.7%,u,x,x,x
COc1cc(/C=C/C(=O)OCC(=O)Nc2oc(C)c3c(C)n[nH]c(=O)c23)ccc1OC(F)F,6.9%,2.1,-9.3%,-7.9%[15.4 µM],x,x,14.5
O=C(Nc1ccon1)C1CCN(S(=O)(=O)c2cccs2)CC1,25.1µM*,-9.9,7.9%,0.5%,21.5%,0.4,-6.7
O=C(Nc1ccc(Cl)cc1)Nc1cccc(C(=O)O)c1,x,14.0,-5.2%,u,-6.6%,0.4,4.3
CCCNC(=O)C(Cc1ccc(OC)cc1)NC(=O)c1ccc(C#N)cc1 (configuration not stated),-4.4%,-2.3,-1.8%,x,x,x,-5.5
Cc1ccc(-c2n[nH]c(=O)c3ccccc23)cc1S(=O)(=O)Nc1ccccc1,-1.2%,19.6,-6.9%,-20.5%,9.3%,0.3,-3.0
O=C1CCCC(O)=C1C1C2=C(CCCC2=O)OC2=C1C(=O)CCC2,x,7.7,0.1%,-13.1%[15.4 µM],12.4%,-4.7,-4.8
CC(=O)OCC(=O)[C@@]1(O)CCC2C3CCC4=CC(=O)CCC4(C)C3C(=O)CC21C (some centres not stated),-0.4%,20.0,12.5%,27.0%,11.0%,-0.4,8.2
Cc1oc2c(CN3CCCC3)c(O)ccc2c(=O)c1Oc1ccccc1Br,37.0%,38.8,-6.7%,u,-4.7%,2.9,-6.2
CC(=O)c1c(C)[nH]c(C(=O)N(CCc2ccccc2)Cc2ccccc2)c1C,x,-3.6,-5.1%,-0.7%,3.8%,-1.0,-8.8
CCCn1c(C)cc(-c2csc(N)n2)c1C,-5.3%,13.6,-6.5%,u,56.2µM*,u,2.9
CC(C)(CN1CCCC1)NS(=O)(=O)c1ccc(Cl)cc1,x,-4.1,-3.1%,u,15.5%,-13.9,-10.8
S=c1[nH]nc(CNc2cccc(Cl)c2)o1,x,-21.5,-10.2%,16.7%[15.4 µM],0.5%,5.6,6.9
COc1ccc(NC(=O)Nc2ccc3c(c2)C(=O)N([C@H](C)CO)C[C@@H](C)[C@@H](CN(C)C(=O)C2CCCCC2)OCCCC[C@H](C)O3)cc1,-2.2%,-1.2,x,-121.7%[inhibitor],x,x,x
Cc1ccc(C(=O)Nc2ncn[nH]2)cc1,1.4%,3.0,2.8%,-9.3%[15.4 µM],3.9%,-0.1,-18.7
COc1ccc(C2CC(c3ccc(Br)cc3)=NN2C(=O)CSC2=NN3CCCC(=O)N=C3S2)cc1 (configuration not stated),-15.0%,-9.7,1.8%,u,10.2%,8.5,-6.9
CCOc1cc(CNc2ccc3c(c2)CCC3)ccc1O,-6.9%,8.4,-33.3%,0.1%,13.7%,1.0,-8.9
COCCCn1c(C)nnc1SCC(=O)Nc1cccc(C)c1,-0.2%,-13.0,1.1%,21.4%,-3.9%,-2.6,-19.5
CCC(=O)Nc1nnc(Sc2ccc(N(C)C)cc2)s1,-0.7%,2.9,5.2%,u,-0.4%,-1.9,11.4
CCCN1CN(Cc2ccccc2)CC2=C1CC(C)(C)CC2=O,0.0%,-2.4,-11.7%,-17.4%,u,-1.0,6.5

3 entries from above in another layout.
The line under a structure holds: ClpP mod	TRPML1 blocker	gsp antagonist	gsp ag	Sfp inh	Menin-MLL FL inh	TRPV1 potentiator
CCOc1cc(CNc2ccc3c(c2)CCC3)ccc1O
 : -6.9%	8.4	-33.3%	0.1%	13.7%	1.0	-8.9
COCCCn1c(C)nnc1SCC(=O)Nc1cccc(C)c1
 : -0.2%	-13.0	1.1%	21.4%	-3.9%	-2.6	-19.5
CCC(=O)Nc1nnc(Sc2ccc(N(C)C)cc2)s1
 : -0.7%	2.9	5.2%	u	-0.4%	-1.9	11.4

Screening results deposited in PubChem BioAssay by National Center for Advancing Translational Sciences (NCATS).
